NPYLR7 agonist – agonists of mosquito NPYLR7 receptor, primary screen, cell-based, Aedes aegypti, calcium fluorescence, mosquito biting behavior. AID 1259423, 2018. activation, % at 10 µM. HEK293T NPYLR7/Galpha15, GCaMP6s calcium fluorescence. 270,000 compounds, 0.15% hits. Aedes aegypti neuropeptide Y-like receptor 7 (NPYLR7); in the data active means activation above about 40%;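 further: 0% = vehicle and 100% = reference agonist at the receptor; some compounds past the cut are filed as inactive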
NPYLR7 agonist max-min – second read-out of NPYLR7 agonist, no call of its own (marks repeat the call); activation, %; measured here: Max-Min RFU normalised activation; some inactives read as strong as hits;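 span of the calcium signal over five minutes; 0% = vehicle and 100% = native peptide agonist; compound fluorescence can raise it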
* marks the source's active call; other numbers are inactive results; & = joins results of further samples. This is a subset (hit frequency here may not be typical).

Sequence of screens – NPYLR7 agonist	NPYLR7 agonist max-min
O=C(NC(Cc1ccccc1)C(=O)Nc1nnc(-c2cccc(Br)c2)s1)c1cccc(C(F)(F)F)c1 (stereo not given)
  9.4	10.3
COc1cccc(C(=O)Nc2c(-c3ccccc3C)nc3cc(C)ccn23)c1
  -1.0	5.1
CCOC(=O)C1=C(C)Nc2nc(SCC(C)C)[nH]c(=O)c2C1c1cccs1 (stereo not given)
  0.8	5.0
COc1ccc(Cl)cc1N1CCN(C(=O)Cc2ccccc2)C(C)C1=O (stereo not given)
  -1.8	10.2
OCC1(CCc2ccccc2)CCCN(Cc2cc3ccccc3o2)C1 (stereo not given)
  4.0	3.3
Cc1noc(C)c1C(=O)N1CCCC1C(=O)Nc1cccc(-n2cccn2)c1 (stereo not given)
  2.7	-1.0
Cc1cn2nc(N3CCC(Cc4cccc(F)c4)CC3)sc2n1
  7.2	4.2
C/C(=C\CO)CC[C@H](C)CCC[C@H](C)CCCC(C)C
  -9.7	-13.5
CCOC(=O)N1CCN(CN2C(=S)SC3=NC(=O)CCCN32)CC1
  -0.1	-1.5
O=C(CCC(=O)c1cc(Cl)sc1Cl)Nc1nncs1
  1.4	1.4
Cc1nn(CC(=O)Nc2cccc(O)c2)c(=O)c2ccccc12
  5.7	7.8
COC(=O)c1cc(OC(=O)C=Cc2cc(OC)c(OC)c(OC)c2)cc(C(=O)OC)c1
  9.7	15.5
Cc1cc(C(=O)Nc2cccc(N3C(=O)c4ccccc4C3=O)c2)n[nH]1
  6.9	3.2
COc1ccc(N2CCN(C(=O)COC(=O)c3ccc(O)cc3)CC2)cc1
  10.3	7.7
O=C(Nc1cccc(C2SCC(=O)N2c2ccc3c(c2)OCCO3)c1)C1CC1 (stereo not given)
  7.9	-5.4
CC(Nc1nc(-c2ccc(Cl)cc2)nc2ccccc12)c1ccccc1 (stereo not given)
  -17.2	-17.2
COCCNC(=O)c1ccc2c(=O)n(CC(C)C)c(SCC(=O)c3ccc(F)cc3)nc2c1
  7.7	-6.2
C=CCc1cc(S(=O)(=O)c2ccc(O)c(CC=C)c2)ccc1O
  4.9	0.1
Cc1ccc(NC(=O)c2cccnc2Nc2cccc(Cl)c2)cc1
  -9.7	-16.4
COc1cccc(Cl)c1-c1csc(C(N)=O)c1
  6.8	2.9
COc1ccc(C2c3[nH]c4ccccc4c3CCN2Cc2nccs2)cc1C (stereo not given)
  -8.5	-11.6
O=C(Nc1ccc2c(c1)CN(S(=O)(=O)N1CCOCC1)CC2)c1ccccn1
  -0.1	-0.4
N[C@H](C(=O)O)[C@H](O)C(=O)O
  -8.1	-6.9
CC(=O)C(C)n1c(CN2CC(C)OC(C)C2)nc2c1c(=O)[nH]c(=O)n2C (stereo not given)
  8.3	6.7
COc1ccc(-c2noc(CN3CCCCC3c3ccc(F)cc3)n2)cc1 (stereo not given)
  12.0	5.2
CN(C(=O)Nc1cccc(OC(F)F)c1)C1CCCCC1
  2.4	-2.1
Cc1ccc(NC(=O)NC(Cc2ccccc2)C(=O)Nc2nnc(-c3ccc(Cl)cc3)s2)c(C)c1 (stereo not given)
  -4.6	-4.8
CCN(CC)c1ccc(CN(CCOC)C(=O)c2ccco2)c(OS(=O)(=O)c2ccc(OC)cc2)c1
  -6.0	-18.9
Cc1ccc2nc(-c3ccccc3C)c(NC(=O)C(C)C)n2c1
  -5.0	1.6
CCOC(=O)CCC(=O)Nc1c(-c2ccc(C)cc2)nc2ccccn12
  -4.0	-2.9
COc1ccc(N(C(=O)c2ccc(N3CCOCC3)cc2)C(C)C)cc1F
  23.4	11.2
CC1=NC2=C(C(=O)CC(C)(C)C2)C(c2cccc(Cl)c2Cl)C1C#N (stereo not given)
  4.7	5.7
O=C(c1ccnc(Cl)c1)N1CCN(c2nccc(-c3cccc(C(F)(F)F)c3)n2)CC1
  -3.4	-7.4
COCCc1noc(CN2CCC(O)(c3ccc(C)cn3)CC2)n1
  -3.3	-5.4
Cc1cc(C)c(C)c(S(=O)(=O)N2CCC(NC(=O)NC3CCCCC3)CC2)c1C
  14.6	11.7
CC(C)c1nccn1CCCNC(=O)c1ccc(N2CCNC(=O)CC2)nc1
  6.2	1.1
CCOc1ccccc1C(=O)Nc1cc(C(=O)OC)c[nH]c1=O
  5.7	2.4
CNc1cncc(-c2ccccc2CO)n1
  3.3	1.9
CC(C)(C)C(=O)Nc1ccc(NC(=O)COc2cccnc2)cc1Cl
  14.0	-4.4
CCCn1c(=N)n(CCO)c2ccccc21
  -1.4	-1.7
CN(C)CCOc1ccc(C#N)cn1
  -2.6	4.8
COc1ccccc1CCNC(=O)c1cncn1-c1cccc(-c2cccc3c2sc2ccccc23)c1
  3.1	1.5
O=C(NCc1ccco1)c1cc2ccccc2oc1=O
  -0.8	-7.8
COc1cccc(COC2CN(Cc3ccccn3)C(=O)CN(C(=O)c3csc(C(C)C)n3)C2)c1 (stereo not given)
  12.0	1.2
O=C(NCc1nnnn1-c1ccc(Cl)cc1)c1ccc2ccccc2c1
  3.0	-0.1
Cc1ccc(Cn2nccc2NC(=O)c2cnc(C(C)(C)C)s2)o1
  1.2	-0.1
O=C(c1ccc(-c2ccccc2)cc1)C1CCCN(C(=O)CCc2ccncc2)C1 (stereo not given)
  15.5	9.4
CCc1[nH]n(-c2ccccc2)c(=O)c1C1=C([n+]2cc(C)cc(C)c2)C(=O)N(c2ccc(OC)cc2)C1=O
  0.7	6.3
CC(C)c1nc(Cn2ccnc2-c2ccc(S(C)(=O)=O)cc2)no1
  8.7	2.2
COc1cccc(CN(CC(O)COCc2ccco2)CC2CC(c3ccc4c(c3)OCO4)=NO2)c1 (stereo not given)
  -1.9	4.2
CCCCOCCOCC(=O)N1CCN(Cc2cccc(-c3noc(-c4cccs4)n3)c2)CC1
  2.3	1.6
COCCCNc1nc2nonc2nc1N(C)CC1CCCN1C (stereo not given)
  1.8	7.9
COc1cccc(C(=O)N2CCC(c3nc(-c4ccc(Cl)cc4F)no3)CC2)c1
  4.1	-1.1
CNc1nc(C)c(C(C)(C)C)s1
  0.5	0.5
O=C(c1ccc(-c2ccoc2)nc1)N1CCC(CCc2ccccc2)CC1
  8.9	3.5
O=C1N(c2ccccc2)C[C@@H]2C[C@@H](c3cccn3-c3ccccn3)N3CCC[C@@]123
  5.2	8.2
Cc1ccc2cc(CCNC(=O)c3cccc(C(F)(F)F)c3)c(=O)[nH]c2c1C
  -0.5	-4.6
COc1ccc(OCCNC(=O)c2ccc3nc(C)c(N(C)Cc4ccc(NC(C)=O)cc4)n3c2)cc1
  17.7	3.2
O=C(NCc1ccc2c(c1)OCO2)c1ccc(-c2cc(-c3ccc(Cl)cc3Cl)[nH]n2)cc1
  28.1	11.5
CCN1c2ccccc2N(C)[C@]1(C)c1ccccc1
  2.1	5.8

A draw from above in order of SMILES length, high to low.
Sequence of screens – NPYLR7 agonist	NPYLR7 agonist max-min
CCc1[nH]n(-c2ccccc2)c(=O)c1C1=C([n+]2cc(C)cc(C)c2)C(=O)N(c2ccc(OC)cc2)C1=O
  0.7	6.3
COc1ccccc1CCNC(=O)c1cncn1-c1cccc(-c2cccc3c2sc2ccccc23)c1
  3.1	1.5
CC1=NC2=C(C(=O)CC(C)(C)C2)C(c2cccc(Cl)c2Cl)C1C#N (stereo not given)
  4.7	5.7
COCCc1noc(CN2CCC(O)(c3ccc(C)cn3)CC2)n1
  -3.3	-5.4
CCN1c2ccccc2N(C)[C@]1(C)c1ccccc1
  2.1	5.8
CNc1nc(C)c(C(C)(C)C)s1
  0.5	0.5
CN(C)CCOc1ccc(C#N)cn1
  -2.6	4.8

Remaining list, next part.
Sequence of screens – NPYLR7 agonist	NPYLR7 agonist max-min
COCCNc1cc(C)nc2c(-c3ccc(C)cc3)cnn12
  2.5	1.2
Cc1ccc(-n2c(C)n[nH]c2=O)cc1C
  8.0	4.2
COCCNC(=O)Cn1c(=O)n(-c2ccccc2)c(=O)c2oc3ccccc3c21
  -5.8	-10.7
O=C(Nc1ccc2[nH]cc(CCN3CCN(c4cccc(C(F)(F)F)c4)CC3)c2c1)c1c(F)c(F)c(F)c(F)c1F
  19.6	12.7
CC1(C)C(C(=O)O)N2C(=O)C[C@H]2S1(=O)=O (stereo not given in full)
  -6.7	2.9
CC(NC(=O)c1csc(-c2cc3ccccc3o2)n1)C(=O)N1CCOCC1 (stereo not given)
  -5.8	-7.3
Cc1cccc(C)c1NC(=O)c1cccc(CN(C)Cc2cnc(N)nc2)c1
  12.1	12.2
COc1ccccc1OCC1c2ccsc2CCN1C(=O)CNC(C)C (stereo not given)
  31.6	23.9
Cc1c(C)n2c3c(=O)n(CCN4CCOCC4)c(=O)n(C)c3nc2n1-c1ccc(Cl)cc1
  5.3	-1.3
O=S1(=O)CCC(Cc2nn3c(Cc4ccccc4)nnc3s2)C1 (stereo not given)
  5.8	-0.4
CC1C(=O)N(c2ccc(Cl)cc2)CCN1C(=O)CCc1ccccc1 (stereo not given)
  -1.9	6.0
C[C@H](NC(=O)c1sccc1Br)C(=O)N1CCCCC1
  2.3	1.0
CCOn1c(=O)c(-c2cc(OC)ccc2OC)[n+]([O-])c2ccccc21
  12.9	3.9
CC(C)(C)c1cc2nc(-c3ccccc3Cl)cc(C(=O)N3CCN(c4ccc([N+](=O)[O-])cc4)CC3)n2n1
  5.7&18.0	4.2&14.8
O=C(CNCc1ccco1)N1CC(=O)N(c2ccc(Cl)cc2)C1
  5.8	3.8
O=C(c1ccc2ncccc2c1)N1CCOc2ccc(CN3CCc4ccccc4C3)cc2C1
  16.9	4.5
CSCc1nc2sc(C(=O)OCC(=O)N3CCCc4ccccc43)c(C)c2c(=O)[nH]1
  -2.4	-5.5
O=C(NCc1ccccc1)c1coc(CN(Cc2ccccc2)Cc2cccc(Cl)c2Cl)n1
  12.3	2.7
O=C(C1CCN(S(=O)(=O)c2ccc(Cl)cc2)CC1)N1CCOCC1
  -7.5	-5.0
CN1CCN(c2ccc(-c3nc(Cc4ccccc4)no3)cn2)CC1=O
  8.7	4.8
CCOc1ccc(S(=O)(=O)N2CCCCC2)cc1NC(=O)CCc1ccco1
  6.5	4.6
O=c1cc(CN2CCN(S(=O)(=O)c3c(F)c(Br)cc(F)c3Br)CC2)occ1OCc1cccc(F)c1
  21.1	15.1
COc1ccc(-n2c(=O)c3c4c(sc3n3c(=S)[nH]nc23)CCCCC4)cc1
  -0.1	-3.6
NC(=O)c1ccccc1NC(=O)Cn1ncccc1=O
  -1.0	-1.7
COCCCN=C(NC(=O)c1ccc2c(c1)OCO2)OCCOC
  -5.2	-2.4
COc1ccccc1-c1nccnc1NCC(C)C
  -8.8	-11.8
C=CCn1c(SCc2ccc(C(=O)N3CCOCC3)cc2)nnc1-c1ccc([N+](=O)[O-])cc1
  26.1	40.2
O=C(NCCc1cccc(Cl)c1)c1ccc(-c2ccc(C3CCCCC3)cc2)s1
  -1.0	0.9
Clc1ccc(C2=C3CCCCn4c(-c5ccccc5)c[n+](c43)C2)cc1
  -2.8	-1.5
CCCNC(=O)c1csc(CN(CCC)C(=O)Nc2ccc(OC)cc2)n1
  18.4	17.7

Filtered by structure, those above containing a nitro group on carbon (2)
Sequence of screens – NPYLR7 agonist	NPYLR7 agonist max-min
CC(C)(C)c1cc2nc(-c3ccccc3Cl)cc(C(=O)N3CCN(c4ccc([N+](=O)[O-])cc4)CC3)n2n1
  5.7&18.0	4.2&14.8
C=CCn1c(SCc2ccc(C(=O)N3CCOCC3)cc2)nnc1-c1ccc([N+](=O)[O-])cc1
  26.1	40.2

(continued)
Sequence of screens – NPYLR7 agonist	NPYLR7 agonist max-min
CC1=C(C#N)C(=O)N(CCO)C(=O)C1CN1CCCCC1 (stereo not given)
  7.9	31.1
COc1ccc(OCc2nc(C(=O)NCc3ccc(F)cc3)cs2)cc1
  27.9	22.0
CCCc1cc(C(=O)N2CC(c3ccncc3)C2)ccn1
  -3.8	12.6
N#Cc1cccc(OS(=O)(=O)c2cc(Cl)sc2Cl)c1
  0.4	-2.0
CC(C)N(Cc1ccc(OS(=O)(=O)c2ccc(F)cc2)cc1)C(=O)Nc1ccc(F)c(Cl)c1
  7.2	13.9
Cc1nsc(NC(=O)N2CCN(C3CCCC3)C(=O)C2)n1
  0.8	-3.1

One compound at a time, from the list above.
Record of `O=C(NCCc1cccc(Cl)c1)c1ccc(-c2ccc(C3CCCCC3)cc2)s1` → NPYLR7 agonist: -1.0; NPYLR7 agonist max-min: 0.9
Record of `CC1C(=O)N(c2ccc(Cl)cc2)CCN1C(=O)CCc1ccccc1` (stereo not given) → NPYLR7 agonist: -1.9; NPYLR7 agonist max-min: 6.0

Bioassay records (PubChem BioAssay)
